MLL AF4-AF9 inh – inhibitors of AF4 peptide binding to AF9, primary screen, biochemical, AlphaScreen, biotin-AF4 peptide, FLAG-AF9, single point. Protein AF-9 (Homo sapiens), P42568. inhibition, % at 10 µM. 350,000 tested, 0.47% active. AID 651704, 2012;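 active = every replicate reaching a set inhibition limit, whatever the replicate mean, cut at about 25% in these data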;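 note: 0% = plate neutral control median and 100% = total signal loss; the record names both 10 and 1 µM as test concentration; the first replicate is given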
Target sequence (P42568 whole entry, looked up): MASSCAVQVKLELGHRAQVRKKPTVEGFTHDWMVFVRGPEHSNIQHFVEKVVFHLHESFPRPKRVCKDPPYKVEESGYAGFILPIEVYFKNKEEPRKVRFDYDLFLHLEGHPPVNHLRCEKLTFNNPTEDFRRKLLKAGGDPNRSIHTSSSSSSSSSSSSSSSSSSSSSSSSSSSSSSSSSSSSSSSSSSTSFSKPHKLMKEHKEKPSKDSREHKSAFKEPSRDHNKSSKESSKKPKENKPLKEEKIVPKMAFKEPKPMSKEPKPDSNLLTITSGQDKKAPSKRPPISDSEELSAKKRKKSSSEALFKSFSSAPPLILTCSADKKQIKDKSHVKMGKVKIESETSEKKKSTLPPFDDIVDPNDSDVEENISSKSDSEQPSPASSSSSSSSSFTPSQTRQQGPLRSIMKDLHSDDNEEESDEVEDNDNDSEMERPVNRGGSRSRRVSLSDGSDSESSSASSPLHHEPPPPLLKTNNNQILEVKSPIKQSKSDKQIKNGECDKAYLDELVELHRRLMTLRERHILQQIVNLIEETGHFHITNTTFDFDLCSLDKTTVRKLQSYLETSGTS
Ecoli rRNA inh – reduced GFP signal of wild-type E. coli, primary screen, bacterial rRNA inhibitor project, GFP/RFP fluorescence, OD600, single point | E. coli WT GFP vs humanized-ribosome RFP mutants, 24 h; hits give low values; DMSO median 0, no signal -100 | GFP signal change (wild-type ribosome), % (no concentration beside the values) | 350,000 tested, 1.6% active | AID 720706, 2013;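 active = significant combined selectivity score with lowered wild-type GFP, culture density cut under 30%, mutant RFP and density less affected; inactive = any of these conditions unmet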; note: one replicate is shown; some compounds called inactive have numbers as strong as hits
FGF22 binding – binders of human FGF22 protein, primary screen, FGF22 synaptogenesis inhibitor project, biophysical, thermal shift, single point. Fibroblast growth factor 22 (Homo sapiens), Q9HCT0. calls only at 9.99 µM. recombinant FGF22 thermal shift, SYPRO orange fluorescence; percent of sucrose octasulfate shift, DMSO zero. 340,000 tested, 1.5% active;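 active = melting point raised past a set limit in the mean and every replicate; three in four hits are not shown here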
Target sequence (Q9HCT0 whole entry, looked up): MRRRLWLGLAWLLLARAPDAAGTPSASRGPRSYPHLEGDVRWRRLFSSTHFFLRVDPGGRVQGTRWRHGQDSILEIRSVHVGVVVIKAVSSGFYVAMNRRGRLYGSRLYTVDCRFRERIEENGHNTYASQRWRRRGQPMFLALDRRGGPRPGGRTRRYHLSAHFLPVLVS
Ecoli rRNA inh OD600 – further read-out of Ecoli rRNA inh, marked with its call; OD600 change, %; measured here: OD600 growth;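 optical density of the mix in the first replicate; 0 = DMSO median and -100 = no signal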
Ecoli rRNA inh RFP – second read-out of Ecoli rRNA inh, no call of its own (marks repeat the call); RFP signal change, %; measured here: RFP humanized mutant strains;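 first replicate; 0 = DMSO median and -100 = no signal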
* marks the source's active call; other numbers are inactive results; i = inactive; & = joins results of further samples.

SMILES	MLL AF4-AF9 inh	Ecoli rRNA inh	Ecoli rRNA inh OD600	Ecoli rRNA inh RFP	FGF22 binding
COCC#Cc1ccc([C@@H]2[C@@H](CO)N3C(=O)CN(C(=O)c4ccncc4)C[C@@H]23)cc1	-2.7	-1	-5	2.0	i
Cc1ccc(-c2ccc3c(c2)O[C@@H](CN(C)Cc2ccccn2)[C@H](C)CN([C@H](C)CO)S3(=O)=O)cc1	7.5	-10	-16	31	i
CCCC#Cc1ccc([C@@H]2[C@@H](CO)N3CCCCN(S(=O)(=O)CC)C[C@H]23)cc1	11	-4	-5	-0.6	i
CC(C)CC#Cc1ccc([C@H]2[C@@H](CO)N3C(=O)CN(C(=O)c4cccc(F)c4)C[C@H]23)cc1	4.3	8	-20	-1.7	i
C[C@@H]1CN([C@H](C)CO)C(=O)Cc2cc(NC(=O)c3ccncc3)ccc2O[C@H]1CN(C)CC1CCCCC1	-0.2	0	0	1.0	i
CC(C)NC(=O)N[C@H]1C=C[C@H](CC(=O)N2CCCCC2)O[C@@H]1CO	-5.5	3	14	-1.7	i
COc1ccc(Cl)cc1Cn1c(C)c(C(=O)NCc2ccc3c(c2)OCCO3)sc1=O	-3.2	-8	-11	-11	i
COc1ccc(S(=O)(=O)N(C)C[C@H]2Oc3ccc(NC(=O)Cn4cnnn4)cc3C(=O)N([C@@H](C)CO)C[C@H]2C)cc1	-2.5	1	6	1.4	i
C[C@@H]1CN([C@H](C)CO)S(=O)(=O)c2ccc(C#CC3CCCC3)cc2O[C@H]1CN(C)S(C)(=O)=O	4.5	-15	-47	4.7	i
COc1ccc2c3c([nH]c2c1)[C@H](CO)N(Cc1cccnc1)CC31CCN(C(=O)c2cccnc2)CC1	-2.3	5	12	0.0	i
COc1ccc(NC(=O)N(C)C[C@H]2Oc3c(NC(=O)Nc4cccc5ccccc45)cccc3C(=O)N([C@@H](C)CO)C[C@H]2C)cc1	2.3	-2	-10	2.4	i
Cn1cnc(S(=O)(=O)N[C@@H]2CC[C@@H](CC(=O)N3CCN(c4ccccc4)CC3)O[C@@H]2CO)c1	-0.6	4	-1	-2.2	i
O=C(c1cccnc1)N1CC2(C1)[C@@H](c1ccccc1)[C@@H](CO)N2C(=O)CC1CC1	2.8	1	11	0.5	i
C[C@@H]1CN([C@@H](C)CO)C(=O)c2cc(NS(=O)(=O)c3ccccc3)ccc2O[C@@H](C)CCCCO[C@@H]1CN(C)CC1CCCCC1	8.1	0	-24	17	i
O=C(Nc1nccs1)[C@@H]1[C@@H](CO)[C@@H]2Cn3c(cccc3=O)[C@H]1N2C(=O)C1CCCC1	-1.4	2	1	0.3	i
Cc1noc(C)c1NC(=O)N(C)C[C@@H]1Oc2ccc(NC(=O)NC(C)C)cc2CC(=O)N([C@H](C)CO)C[C@H]1C	0.3	2	-3	-1.3	i
COC(=O)C(Cc1ccc(O)cc1)NS(=O)(=O)Cc1ccccc1 (centres undefined)	3.8	5	4	2.4	i
Cn1c(=O)c2c(ncn2CC(=O)OCC(=O)NCc2ccc(F)cc2)n(C)c1=O	-4.5	12	19	-0.1	i
COc1cccc(-c2cnc3c(c2)C(=O)N([C@H](C)CO)C[C@H](C)[C@H](CN(C)Cc2ccccc2)O3)c1	-1.6&-0.3	6	10	-0.1	i
CC(=O)N(C)C[C@@H]1Oc2cc(C#Cc3cccc(F)c3)ccc2S(=O)(=O)N([C@@H](C)CO)C[C@@H]1C	-1.1	-15	-43	14	i
C[C@@H]1CN([C@H](C)CO)C(=O)c2cccc(NS(=O)(=O)c3cccs3)c2O[C@@H]1CN(C)C(=O)NC1CCCCC1	-0.4	-1	1	-0.6	i
Cc1noc(C)c1NC(=O)N(C)C[C@@H]1OCCCC[C@@H](C)Oc2ccc(NC(=O)c3ccncc3)cc2C(=O)N([C@H](C)CO)C[C@@H]1C	-7.4	2	11	-4.1	i
CCC(=O)Nc1ccc2c(c1)C(=O)N(C)[C@@H]1CC[C@@H](CC(=O)NCCc3ccccc3)O[C@@H]1CO2	-1.1	1	1	-1.3	i
COCCNC(=O)C[C@@H]1CC[C@@H]2[C@@H](COc3ccc(NC(=O)COC)cc3C(=O)N2C)O1	-0.2	0	6	-1.8	i
Cc1noc(C)c1NC(=O)N[C@H]1CC[C@@H](CC(=O)N2CCN(C)CC2)O[C@@H]1CO	-1.6	0	-1	0.2	i
COc1cccc(-c2ccc([C@@H]3[C@H]4CN(C(=O)NC(C)C)CCCCN4[C@H]3CO)cc2)c1	-2.7	3	-1	8.5	i
C[C@@H]1CN([C@H](C)CO)C(=O)c2cccc(NC(=O)c3ccncc3)c2O[C@H]1CN(C)S(=O)(=O)c1ccccc1	-2.2	5	7	-0.4	i
CCNC(=O)C[C@H]1CC[C@@H]2[C@H](COc3ccc(NC(=O)Nc4ccc(Cl)cc4)cc3C(=O)N2C)O1	0.6	-2	-3	0.3	i
CNC[C@H]1OCCCC[C@@H](C)Oc2ccc(NS(=O)(=O)c3ccccc3)cc2C(=O)N([C@@H](C)CO)C[C@H]1C	-2.2	3	4	1.2	i
CCCC(=O)Nc1nnc([C@H]2C[C@H](O)[C@@H](CO)O2)s1	2.4	2	15	8.5	i

By substructure: the compounds so far containing a Cl atom.
SMILES	MLL AF4-AF9 inh	Ecoli rRNA inh	Ecoli rRNA inh OD600	Ecoli rRNA inh RFP	FGF22 binding
COc1ccc(Cl)cc1Cn1c(C)c(C(=O)NCc2ccc3c(c2)OCCO3)sc1=O	-3.2	-8	-11	-11	i
CCNC(=O)C[C@H]1CC[C@@H]2[C@H](COc3ccc(NC(=O)Nc4ccc(Cl)cc4)cc3C(=O)N2C)O1	0.6	-2	-3	0.3	i

Fetched by compound from above:
SMILES	MLL AF4-AF9 inh	Ecoli rRNA inh	Ecoli rRNA inh OD600	Ecoli rRNA inh RFP	FGF22 binding
CCCC(=O)Nc1nnc([C@H]2C[C@H](O)[C@@H](CO)O2)s1	2.4	2	15	8.5	i
CCNC(=O)C[C@H]1CC[C@@H]2[C@H](COc3ccc(NC(=O)Nc4ccc(Cl)cc4)cc3C(=O)N2C)O1	0.6	-2	-3	0.3	i

Results in MLL AF4-AF9 inh (3 entries from above):
SMILES	MLL AF4-AF9 inh
Cc1noc(C)c1NC(=O)N(C)C[C@@H]1OCCCC[C@@H](C)Oc2ccc(NC(=O)c3ccncc3)cc2C(=O)N([C@H](C)CO)C[C@@H]1C	-7.4
CNC[C@H]1OCCCC[C@@H](C)Oc2ccc(NS(=O)(=O)c3ccccc3)cc2C(=O)N([C@@H](C)CO)C[C@H]1C	-2.2
COc1cccc(-c2cnc3c(c2)C(=O)N([C@H](C)CO)C[C@H](C)[C@H](CN(C)Cc2ccccc2)O3)c1	-1.6&-0.3

Carrying on:
SMILES	MLL AF4-AF9 inh	Ecoli rRNA inh	Ecoli rRNA inh OD600	Ecoli rRNA inh RFP	FGF22 binding
CC(C)(C)c1ccc(C(=O)N2CCC2(C)C(=O)Nc2cccc3ccccc23)cc1 (centres undefined)	2.8	8	14	-1.1	i
CO[C@H]1CN(C)C(=O)c2ccc(NC(C)=O)cc2OC[C@@H](C)N(C(=O)c2ccccc2)C[C@@H]1C	2.6	-1	-12	-1.4	i
CO[C@@H]1CN(C)C(=O)c2cc(NC(=O)C3CCCC3)ccc2OC[C@@H](C)N(CCC(F)(F)F)C[C@H]1C	1.1	-6	-6	1.1	i
COc1ccc(NC(=O)N(C)C[C@H]2Oc3ccc(NC(=O)CCCCCC(=O)Nc4ccccc4N)cc3C(=O)N([C@@H](C)CO)C[C@@H]2C)cc1	-1.8	3	7	-1.3	i
CN(C)C(=O)[C@H]1[C@H](CO)[C@H]2Cn3c(cccc3=O)[C@@H]1N2C(=O)c1ccccc1	-1.3	1	10	-0.4	i
OC[C@@H]1CN(Cc2ccc(Cl)cc2)C[C@H](n2cnc3c(NCc4ccco4)ncnc32)O1	2.8	4	5	3.6	i
C[C@@H]1CN([C@@H](C)CO)C(=O)c2cc(-c3ccc(F)cc3)cnc2O[C@@H]1CN(C)CC1CCOCC1	-5.2	-1	-2	0.8	i
Cc1noc(C)c1NC(=O)Nc1ccc2c(c1)C(=O)N([C@H](C)CO)C[C@@H](C)[C@@H](CN(C)S(=O)(=O)c1cn(C)cn1)OCCCC[C@H](C)O2	-3.2&-1.2	-1&2	5&6	-3.9&-2.0	i
CC(C)c1cn(CC[C@H]2CC[C@H](NS(=O)(=O)Cc3ccccc3)[C@H](CO)O2)nn1	-0.4	2	7	-0.9	i
C[C@@H]1CN([C@H](C)CO)C(=O)c2cccc(NS(=O)(=O)c3cccs3)c2O[C@H]1CN(C)S(=O)(=O)c1ccccc1	-3.2	1	-6	2.8	i
CN(C)C(=O)C[C@H]1C=C[C@@H](NC(=O)Nc2cccc(F)c2)[C@@H](CO)O1	-1.6	3	2	0.7	i
CC(C)NC(=O)N(C)C[C@@H]1Oc2ccc(NC(=O)Cc3ccccc3)cc2C(=O)N([C@@H](C)CO)C[C@@H]1C	-3.1	3	1	2.0	i
C[C@H]1CN([C@@H](C)CO)C(=O)Cc2cc(NC(=O)Nc3ccc(C(F)(F)F)cc3)ccc2O[C@@H]1CN(C)C(=O)Nc1ccc(C(F)(F)F)cc1	-14	2	11	-3.1	i
CCCC(=O)N1CCCC1(C)C(=O)Nc1cc(OC)ccc1OC (centres undefined)	-5.6	6	4	-1.3	i
C/C=C/c1ccc2c(c1)O[C@H](CN(C)C(=O)Nc1ccc(C(F)(F)F)cc1)[C@H](C)CN([C@@H](C)CO)S2(=O)=O	2.0	0	2	-2.8	i
CN1C(=O)c2cc(NC(=O)C3CCOCC3)ccc2OC[C@@H]2O[C@@H](CC(=O)NC3CCCC3)CC[C@H]21	0.5	3	1	-0.5	i
Cc1noc(C)c1NC(=O)Nc1ccc2c(c1)C(=O)N([C@@H](C)CO)C[C@@H](C)[C@H](CN(C)S(=O)(=O)c1ccc(F)cc1)O2	-0.1	3	7	-2.1	i
CN(C)CC(=O)N1CCCCN2[C@H](C1)[C@H](c1ccc(/C=C/c3ccccc3)cc1)[C@@H]2CO	-5.4	4	6	3.9	i
C[C@@H]1CN([C@H](C)CO)C(=O)c2cccc(NC(=O)CCCCCC(=O)Nc3ccccc3N)c2O[C@H]1CN(C)C(=O)Nc1cccc2ccccc12	-0.7	-3	-13	5.6	i
O=C(NC1CCCCC1)OC[C@@H]1CSCCS(=O)(=O)N1	-3.3	-1	0	-1.8	i
Cc1ccc(NC(=O)CSc2nc3cc(C(=O)NCC4CCCO4)ccc3c(=O)n2CC2CCCO2)cc1 (centres undefined)	-0.3	4	14	-3.3	i
CN(C)C(=O)c1ccc(-c2ccc([C@H]3[C@@H](C#N)N(C(=O)Cc4ccccn4)[C@H]3CO)cc2)cc1	3.2	-4	4	1.8	i
COc1ccc(S(=O)(=O)N(C)C[C@H]2Oc3c(NC(=O)c4ccncc4)cccc3C(=O)N([C@H](C)CO)C[C@H]2C)cc1	-2.9	-5	-2	-2.6	i
COc1ccc(S(=O)(=O)N(C)C[C@H]2Oc3ccc(NS(=O)(=O)c4ccc(Cl)cc4)cc3C(=O)N([C@@H](C)CO)C[C@H]2C)cc1	2.1	0	-9	-0.6	i
C[C@@H]1CN([C@@H](C)CO)C(=O)c2ccccc2-c2ccccc2CO[C@H]1CN(C)S(=O)(=O)c1cccc(F)c1	20	-5	-7	2.0	i
C[C@@H]1CCCCO[C@@H](CN(C)C(=O)Nc2ccccc2)[C@H](C)CN([C@@H](C)CO)C(=O)c2cc(NC(=O)Cc3ccccc3)ccc2O1	1.4	0	0	-0.6	i
C[C@@H](O)C#Cc1ccc([C@H]2[C@H](CO)N3CCCCN(C(=O)c4ccc5c(c4)OCO5)C[C@@H]23)cc1	-3.0	2	-13	-1.6	i
CCCC(=O)Nc1ccc2c(c1)C(=O)N(C)[C@H]1CC[C@H](CC(=O)NC3CCCC3)O[C@H]1CO2	-1.7	1	4	-1.9	i
O=C(C[C@H]1CC[C@H](NC(=O)C2CC2)[C@H](CO)O1)NCCCN1CCOCC1	-5.2	0	0	0.2	i
CO[C@@H]1CN(C)C(=O)c2cc(NS(C)(=O)=O)ccc2OC[C@@H](C)N(C(=O)C2CCCC2)C[C@H]1C	-1.3	3	4	-1.6	i
CCN1[C@@H]2Cn3c(ccc(-c4ccc(F)cc4)c3=O)[C@H]1[C@@H](C(=O)Nc1nccs1)[C@@H]2CO	-0.6	-1	3	0.8	i
COCC#Cc1ccc2c(c1)O[C@H](CN(C)S(=O)(=O)c1ccc(OC)cc1)[C@H](C)CN([C@@H](C)CO)S2(=O)=O	-1.1	-2	-15	0.8	i
COc1ccc(NC(=O)Nc2ccc3c(c2)C(=O)N([C@@H](C)CO)C[C@H](C)[C@@H](CN(C)Cc2ccc(C(=O)O)cc2)O3)cc1	-4.1	0	3	-3.0	i
O=C(CSc1nc(=O)n(CCN2CCOCC2)c2c1CCCC2)Nc1ccccc1Cl	-2.3	3	-5	0.3	i
CC(C)c1ccc(Nc2ncc3c(n2)CCN(C(=O)Nc2ccc(F)c(Cl)c2)C3)cc1	0.8	-22	-36	12	i

Assay outcomes (PubChem)

Not all compounds are listed. The share of hits here may be higher or lower than overall.
